# Rce1 inhib: blocks yeast Ras-converting enzyme; yeast membranes, quenched prenylated peptide cleavage fluorescence; calls only; hit rate 0.27% among 290,000;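 active = fall in fluorescence gain of 50% or more versus controls, with final raw signal at or below 3038400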;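 also: plate controls were neutral control wells for no effect and wells lacking membranes for full effect; tested at 10 µM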
# Target sequence (Q03530 whole entry, looked up): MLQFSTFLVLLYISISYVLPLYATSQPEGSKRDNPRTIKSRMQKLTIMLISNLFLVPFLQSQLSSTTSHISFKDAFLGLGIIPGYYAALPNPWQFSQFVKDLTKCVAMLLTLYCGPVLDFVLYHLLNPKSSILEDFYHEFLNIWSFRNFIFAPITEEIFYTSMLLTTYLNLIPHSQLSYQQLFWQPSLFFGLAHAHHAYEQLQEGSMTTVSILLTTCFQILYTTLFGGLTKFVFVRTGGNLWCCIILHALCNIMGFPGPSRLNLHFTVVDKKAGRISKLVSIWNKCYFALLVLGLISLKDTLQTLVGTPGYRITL
# MT1-MMP act inh: blocks activation of human MT1-MMP; P50281; HT1080 RFP-PRO-GFP cells, GFP/RFP ratio fluorescence, overnight; percent of plate control window, DMSO zero; GFP/RFP ratio change, % at 20 µM; hit rate 0.061% among 360,000;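 active = GFP/RFP ratio change of at least 30% with cell ATP level not reduced by more than half and red fluorescence within 50% of control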; also: strong numbers were not always called active
#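 Material – HT1080 RFP-PRO-GFP cells · Control set – DMSO wells and RFP-L50D-GFP cells · Incubation – overnight cell settling, then overnight compound exposure, 37 °C, 5% CO2 · Compound dosing – single-point 20 µM compound, 1% DMSO · Read-out – GFP/RFP fluorescence ratio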
# Env fusion inh: HIV envelope-mediated fusion inhibition | inhibition, % at 12.3 µM | hit rate 1.1% among 360,000 | HeLa-JRFL Env/CEM21 cell fusion, luciferase;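 active = mean replicate inhibition score of at least 50 and every replicate individually at or above 50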;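 also: 0% = plate neutral controls and 100% = maraviroc near 300 nM; one replicate is shown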
# PABP polyA inh: blocks human PABP binding to poly(A) RNA; hit rate 1% among 290,000; fluorescence polarization; AID 2014; P11940; inhibition, % at 35 µM;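 active = 50% or more with normal probe brightness, or confirmed in later tests; about a fifth of its hits are not listed in these tables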;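 also: calls also rest on retests at 20 µM and on dose response follow-up; controls were probe without protein and protein plus probe with vehicle; some compounds called inactive have numbers as strong as hits; many hits fall short of the cut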
# eIF4H inh: inhibitors of RNA binding by human eIF4H; eIF4H fluorescence polarization binding assay; hit rate 0.94% among 290,000; inhibition, % at 35 µM;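 active = 50% or more with normal probe brightness, or confirmed in later tests; about a fifth of its hits are not listed in these tables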;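 also: calls also rest on retests at 20 µM and on dose response follow-up; 0% = protein and probe with vehicle and 100% = probe without protein; strong numbers were not always called active; many hits fall short of the cut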
# UUG fidelity: modulators of start codon recognition fidelity in yeast | S. cerevisiae UUG-firefly luciferase reporter, luminescence/redox ratio | activity score, % at 18.7 µM | hit rate 0.13% among 350,000 | AID 602363;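 active = replicate mean at a twofold rise or more, about +100% in these data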;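 also: firefly luciferase made from a UUG start codon reports start codon fidelity; reporter light over untreated wells divided by growth signal over untreated wells; some hits fall short of that in this replicate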
# CSC inhib: cancer stem cell inhibition. inhibition, % at 7.5 µM. AID 2717. cancer stem cell-like cells viability, luminescence. hit rate 1.1% among 300,000;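 active = mean at 75% or more and at least half the replicates too; tested in HMLE shEcad cells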;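 also: 0% = median of negative and 100% = median of positive control wells; the first replicate is given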
# eIF4H inh retest: further read-out of eIF4H inh, marked with its call; inhibition, %; compound at 20 µM; confirmation average;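 mean of two retest wells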
# PABP polyA inh retest: also measured in PABP polyA inh; calls as there; inhibition, %; compound at 20 µM; confirmation repeats;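 mean of two retest wells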
# MT1-MMP act inh RFP: recorded beside MT1-MMP act inh, whose call it bears; RFP signal change, %; measured here: RFP expression control read;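 0 = vehicle wells; hits needed this value within 50% of zero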
# * = called active by the depositor; i = inactive; nt = not tested or not shown.
SMILES,Rce1 inhib,MT1-MMP act inh,MT1-MMP act inh RFP,Env fusion inh,PABP polyA inh,eIF4H inh,UUG fidelity,CSC inhib,others
CCc1cc(=O)oc2cc(C)cc(OC(C)C(=O)NCCCN3CCCC3=O)c12 (centres undefined),i,-1,5,13,-8,5,nt,-2,
CCOc1cc(N2CCOCC2)c(OCC)cc1NC(=O)COc1cccc(Cl)c1,i,0,-2,20,nt,nt,-13,4,
Cc1cc(-c2ccccc2N)n[nH]1,i,3,0,nt,-2,-4,-5,1,
CCOC(=O)CSc1nnc(CNC(=O)c2ccc(OC)c(OC)c2)n1C,i,8,2,-45,7,2,1,-17,
O=C(COc1ccc(F)cc1Cl)N1CCN(C(=O)c2cccs2)CC1,nt,7,2,nt,nt,nt,2,13,
O=c1cc(CSc2ccccn2)[nH]c(=O)[nH]1,i,-2,-2,nt,-10,-3,58,-15,
COc1cc(-c2n[nH]c(=S)n2-c2ccc(C)cc2)cc(OC)c1OC,i,9,9,-7,-4,-8,nt,1,
O=C1N(Nc2ccccc2)C(c2ccc(Br)cc2)C12CCCC2 (centres undefined),i,1,1,-33,-9,-17,-14,-1,
COC(=O)c1[nH]c2cc(OC)ccc2c1NC(=O)CCN1CCN(c2ccccc2)CC1,i,9,2,-1,-4,1,-11,-4,
COC(=O)c1cn(Nc2ncc(C(F)(F)F)cc2Cl)c(=O)c2ccccc12,i,1,-7,nt,9,3,19,-14,
O=C(NCCc1c[nH]c2ccccc12)c1cc2ccccc2oc1=O,i,0,-1,-41,-5,0,nt,21,
COc1ccc(C2=NN(CCC(=O)NC3CCCCCC3)C(=O)CC2)cc1,i,-3,1,3,-6,-13,-6,-12,
CCOc1ncccc1C(=O)Oc1ccc2c(c1)OCO2,i,0,1,nt,-4,-2,6,6,
COCCCNc1ccnc2c(Cl)cccc12,i,0,-5,nt,10,-1,nt,-18,
O=C(COC(=O)/C=C/c1ccc(Cl)cc1Cl)Nc1ccc2c(c1)OCCO2,i,0,-7,14,-3,0,-11,13,
Cc1ccc(-n2nnnc2SCC(=O)Nc2cc(C)on2)c(C)c1,i,3,-4,12,-4,-2,-9,nt,
O=C(CN1CCOCC1)c1c[nH]c2ccccc12,i,-4,3,-5,-2,-7,-22,-7,
COc1ccc(C)cc1S(=O)(=O)N1CCN(C(=O)c2ncoc2-c2ccc(F)cc2)CC1,i,-2,1,4,3,-2,nt,3,
CCCc1ccc(C(O)c2ncc(-c3ccc(C)cc3)[nH]2)cc1 (centres undefined),nt,-8,2,9,nt,nt,14,nt,
CC(=O)N1CC=C2C(C#N)=C(N)C(C#N)(C#N)C(CCc3ccccc3)C2C1 (centres undefined),i,-17,11,-55,18,11,4,-16,
O=C(Nc1ccc2c(c1)OCO2)O[C@@H]1C[C@H]2CCCC(=O)N3CC[C@@H](C1)[C@@H]23,i,4,-1,-12,1,-12,-9,2,
CCOC(=O)c1sc2nc(C)nc(SCC(=O)NC3CCS(=O)(=O)C3)c2c1C (centres undefined),i,-2,-1,-4,-4,0,nt,-1,
O=C(CSc1nnc(-c2ccccn2)o1)Nc1ccccc1F,i,-1,4,-87,6,5,-21,2,
CCN1C(=O)[C@H]2[C@@H](c3ccc(C)cc3)N3C(=O)N(c4cccc(F)c4)C(=O)[C@@]3(Cc3ccc(Cl)cc3)[C@H]2C1=O,i,0,-7,43,nt,nt,-7,12,
Cc1ccc(NC(=O)C2CC3CCC2C3)c(Br)c1 (centres undefined),i,-1,0,-10,4,12,-14,-5,
S=C1NCC(c2ccccc2)S1 (centres undefined),nt,3,0,4,nt,nt,-30,nt,
S=C(NCCNC(=S)Nc1ccccc1)Nc1ccccc1,i,2,-3,1,-7,-1,-3,nt,
O=C(Cc1cccc(NC(=O)C2CCN(S(=O)(=O)c3cccc([N+](=O)[O-])c3)CC2)c1)Nc1cccc(C(=O)N2CCCCC2)c1,nt,2,-7,9,nt,nt,-13,nt,
CNc1snc(C)c1C(=O)OC(C)C(=O)NCc1ccccc1 (centres undefined),nt,-2,-1,-14,nt,nt,-9,nt,
CCN1CCN(CCC(=O)Nc2cccc(C)c2)CC1,nt,-2,1,11,3,-1,-21,-1,
Cc1ccc(C(=O)NCN2CCN(c3ccc(F)cc3)CC2)cc1,nt,1,6,nt,nt,nt,1,-2,
CCCn1c2ccccc2c2nnc(SCC(=O)Nc3c(C)n(C)n(-c4ccccc4)c3=O)nc21,i,5,-2,nt,5,4,nt,-11,
Cc1[nH]c2ccccc2c1C(C[N+](=O)[O-])c1cccs1 (centres undefined),i,-2,-4,-19,-3,-7,nt,-2,
Cc1csc(NC(=O)C2CCN(S(=O)(=O)c3ccccc3)CC2)n1,nt,4,-7,-14,nt,nt,-17,nt,
O=C(CSc1nc(O)c(C2CCCCC2)c(=O)[nH]1)N1CCOCC1,i,4,8,1,-3,-12,-3,-8,
O=c1cc(CSc2nnc(-c3ccccc3)o2)c2ccccc2[nH]1,i,0,-1,-12,-5,-3,11,nt,
NNc1ccccc1C(F)(F)F,nt,1,4,-10,1,50,nt,nt,
C=CCNc1ncnc2c1cnn2-c1ccc(C)cc1C,i,2,-1,7,-4,-9,-5,2,
CCc1cccc(C)c1NS(=O)(=O)c1c(C)nc2sccn2c1=O,i,-2,-1,-28,-1,-10,-16,-2,
CCOC(=O)C1CCN(C(=O)COC(=O)COc2ccccc2OC)CC1,i,0,0,-14,12,-3,-9,-3,
COc1ccc(CCNS(=O)(=O)c2cc3c4c(c2)CC(=O)N4CCC3)cc1,i,1,3,6,nt,nt,-7,-15,
O=[N+]([O-])c1ccccc1S(=O)(=O)NC1CCCC1,i,4,7,4,-5,6,nt,-8,
C/C(Cl)=C\Cn1c(O)c(N=NC(N)=S)c2ccccc21,i,7,1,22,2,0,nt,21,
O=C(COc1ccccc1F)Nc1ccc(S(=O)(=O)N2CCCC2)cc1,nt,2,-1,-2,nt,nt,-13,nt,
CCOc1cc(N2CCOCC2)c(OCC)cc1NC(=O)COC(=O)c1cc(C)cc(C)c1,nt,1,4,26,0,-2,nt,-3,
N#Cc1cccc(CSc2nnc(CCCO)n2-c2ccccc2)c1,i,-3,0,16,-4,-6,-7,-5,
Cc1ccc2nc(C3CCCN(C(=O)NCc4ccccc4)C3)[nH]c2c1 (centres undefined),i,-4,-4,-79,2,0,-7,-16,
O=C(NCCc1nnc2ccc(SCC(=O)N3CCCC3)nn12)c1ccc(F)cc1,i,-3,3,5,-4,-15,-5,-4,
c1ccc(-c2ccc3sccc3n2)cc1,i,-2,6,-136,nt,nt,-8,-6,
Cc1ccc2cc(CN(Cc3ccco3)C(=O)NC3CCCCC3)c(=O)[nH]c2c1C,i,-31,-27,nt,-6,-3,-2,4,
Cc1ccc(C(C)C)c(OCC(=O)NN=C(CCl)CCl)c1,i,nt,nt,nt,4,-4,nt,11,
Cc1ccccc1OCC(=O)OCC(=O)Nc1cc(S(C)(=O)=O)ccc1Cl,i,3,7,-37,nt,nt,-11,-1,
CCOC(=O)c1cnc(SCc2nc(N)nc(Nc3ccc(OC)cc3)n2)nc1N,i,2,0,16,-3,3,-17,-12,
CC(=O)c1cccc(NC(=O)Nc2cc3sccc3n2C)c1,i,nt,nt,nt,9,88,nt,6,eIF4H inh retest=2;PABP polyA inh retest=0
Cc1ccccc1C(=O)Oc1ccc(Cl)cc1C(=S)N1CCOCC1,nt,3,-3,13,0,-2,-11,-1,
CC(=O)Nc1cccc(-c2ccnc3c2CC(C)(C(=O)NCc2ccc(N(C)C)cc2)O3)c1 (centres undefined),nt,5,-7,-10,nt,nt,-5,nt,
O=C(O)CCn1nc(-c2ccc(F)cc2)cc(Cc2ccccc2)c1=O,i,0,1,nt,12,-1,5,11,
Oc1ccc(/C=N/Nc2cccc3cccnc23)c(O)c1,i,-7,-2,-228,11,-7,-26,nt,
CC12CC3(C)CC(C)(C1)CC(C(=O)NC1=NCCS1)(C2)C3,i,nt,nt,49,nt,nt,-13,2,
COc1ccc(NC(=O)C(=O)NCCC2CCCCN2S(=O)(=O)c2ccc(F)cc2)cc1 (centres undefined),i,-8,-15,16,nt,nt,-6,17,

# Further results:
SMILES,Rce1 inhib,MT1-MMP act inh,MT1-MMP act inh RFP,Env fusion inh,PABP polyA inh,eIF4H inh,UUG fidelity,CSC inhib,others
CCN(C(=O)COC(=O)c1ccc(-n2c(C)ccc2C)cc1)c1c(N)n(Cc2ccccc2)c(=O)[nH]c1=O,nt,-6,0,-26,nt,nt,-9,nt,
O=C(Nc1ccc2c(c1)nc1n2CCSC1)c1ccccc1,i,0,4,-61,8,-2,-43,10,
CC(C)Nc1nc(Cl)nc(N(C#N)CN2C(=O)c3ccccc3C2=O)n1,i,1,1,-298,-4,-2,nt,24,
c1ccc2c(c1)nc1sccn12,i,-2,2,-4,-1,-1,-10,-23,
O=C(NCCC1CCCCN1S(=O)(=O)c1ccccc1)C(=O)NC1CC1 (centres undefined),i,5,2,nt,nt,nt,6,-10,
COc1ccc(C2CC(c3ccccc3)=NN2c2ccc(Cl)c(C(=O)O)c2)cc1 (centres undefined),i,-2,2,0,9,-1,-25,-2,
O=C1CC(c2ccccc2)n2nc(NC(=O)C3CCCO3)nc2N1 (centres undefined),i,-1,3,nt,-10,-7,-1,-15,
CCCC(=O)NC(=S)Nc1cc(-c2nc3ncccc3o2)ccc1C,i,0,-2,-4,1,-10,nt,2,
COc1ccc(-n2c(-c3ccc(Br)cc3)c[n+]3c2CCc2ccccc2-3)cc1,i,-18,-28,9,0,-1,nt,7,
COC(=O)[C@]1(C)N[C@H](CN(C)S(=O)(=O)c2ccc(C)cc2)[C@@H]2C(=O)N(Cc3ccccc3)C(=O)[C@@H]21,nt,-1,2,-6,nt,nt,-11,nt,
O=C(N/N=C/c1ccc(Cl)c([N+](=O)[O-])c1)c1cc(-c2ccccc2)nc2ccccc12,i,-20,-30,3,4,-11,nt,96*,
CC(C)(C)Cc1nnc(NC(=O)c2ccc3c(c2)OCO3)s1,i,0,1,-17,10,1,-17,nt,

# Of the compounds above, these contain an aryl thioether with sulfur outside any ring.
SMILES,Rce1 inhib,MT1-MMP act inh,MT1-MMP act inh RFP,Env fusion inh,PABP polyA inh,eIF4H inh,UUG fidelity,CSC inhib,others
CCOC(=O)CSc1nnc(CNC(=O)c2ccc(OC)c(OC)c2)n1C,i,8,2,-45,7,2,1,-17,
O=c1cc(CSc2ccccn2)[nH]c(=O)[nH]1,i,-2,-2,nt,-10,-3,58,-15,
Cc1ccc(-n2nnnc2SCC(=O)Nc2cc(C)on2)c(C)c1,i,3,-4,12,-4,-2,-9,nt,
CCOC(=O)c1sc2nc(C)nc(SCC(=O)NC3CCS(=O)(=O)C3)c2c1C (centres undefined),i,-2,-1,-4,-4,0,nt,-1,
O=C(CSc1nnc(-c2ccccn2)o1)Nc1ccccc1F,i,-1,4,-87,6,5,-21,2,
CCCn1c2ccccc2c2nnc(SCC(=O)Nc3c(C)n(C)n(-c4ccccc4)c3=O)nc21,i,5,-2,nt,5,4,nt,-11,
O=C(CSc1nc(O)c(C2CCCCC2)c(=O)[nH]1)N1CCOCC1,i,4,8,1,-3,-12,-3,-8,
O=c1cc(CSc2nnc(-c3ccccc3)o2)c2ccccc2[nH]1,i,0,-1,-12,-5,-3,11,nt,
N#Cc1cccc(CSc2nnc(CCCO)n2-c2ccccc2)c1,i,-3,0,16,-4,-6,-7,-5,
O=C(NCCc1nnc2ccc(SCC(=O)N3CCCC3)nn12)c1ccc(F)cc1,i,-3,3,5,-4,-15,-5,-4,
CCOC(=O)c1cnc(SCc2nc(N)nc(Nc3ccc(OC)cc3)n2)nc1N,i,2,0,16,-3,3,-17,-12,

# Only part of the results is shown (hit frequency here may not be typical).
